# GIV Gai3 FP = inhibitors of GIV peptide binding to Galpha-i3, primary screen, biochemical, fluorescence polarization, FITC-GIV GBA peptide, rat Galphai3. Guanine nucleotide-binding protein G(i) subunit alpha-3 (Rattus norvegicus), P08753. 90 min; stronger effect = lower value; scaled: aluminum fluoride 0%, vehicle 100%. percent of control (FP), % (concentration not given with the values). hit rate 0.42% among 210,000. AID 1224905, 2016;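 active = replicate mean at 85% of control or lower, very high polarization wells dropped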;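 also: wells of about 15 µL received 100 nL stock; the first replicate is given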
# Target sequence (P08753 whole entry, looked up): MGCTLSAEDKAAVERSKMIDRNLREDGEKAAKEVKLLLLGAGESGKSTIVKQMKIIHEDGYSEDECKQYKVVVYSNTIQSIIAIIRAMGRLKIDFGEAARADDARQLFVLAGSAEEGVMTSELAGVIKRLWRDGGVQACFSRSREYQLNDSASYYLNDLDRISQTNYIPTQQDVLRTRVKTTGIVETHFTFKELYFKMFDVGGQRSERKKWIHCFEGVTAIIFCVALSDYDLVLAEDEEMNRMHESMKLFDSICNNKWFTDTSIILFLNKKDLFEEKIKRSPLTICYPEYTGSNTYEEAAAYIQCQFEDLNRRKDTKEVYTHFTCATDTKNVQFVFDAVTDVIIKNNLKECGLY
# Active calls of the source: *.
SMILES,GIV Gai3 FP
Cc1onc(-c2cccc(Br)c2)c1C(=O)NCc1ccc2c(c1)OCO2,107
CCCCCCCCn1c2cc(Cl)cc(Cl)c2c2c(Cl)cc(Cl)cc21,101
O=C1CN(C(=O)c2cc([N+](=O)[O-])c(N3CCOCC3)c([N+](=O)[O-])c2N2CCOCC2)c2ccccc2N1,108
CNc1nc(NCCOC23CC4CC(CC(C4)C2)C3)nc(OCC(F)(F)F)n1,113
COc1ccc(NC(=O)c2ccc(Oc3ccnc(-c4ccc(F)cc4)n3)cc2)c(OC)c1,99
COC(=O)CNC(=O)N1CCN(Cc2nc3cc(C(=O)N(C)C)ccc3n2C)CC1,99
Cc1ccc(N2C(=O)/C(=C/c3ccc([N+](=O)[O-])cc3)C=C2c2ccccc2)c(C)c1,127
Cc1nc(CCNC(=O)[C@H]2CCCN2C(=O)c2ccccc2F)cs1,102
CCOCCCNc1ncnc2c1nnn2CC,105
CC1(C)CC(=O)C2=C(C1)N(c1ccc(Br)cc1)C(N)=C(C#N)C2c1cccs1 (stereo not given),112
COc1cccc(C2(C(=O)N3CCN(C)CC3)CC2)c1,108
CCc1nnc(-c2cccs2)o1,105
O=C(C1CCCN(S(=O)(=O)c2cc(-c3noc(C4CCC4)n3)cs2)C1)N1CCOCC1 (stereo not given),104
CCn1cnc2c(-c3ccccc3C)csc2c1=O,104
O=C(Nc1ccc(-c2noc(-c3ccccc3Br)n2)cc1)c1ccco1,100
CCC(C)NC(=O)c1sc2ncn(CCOC)c(=O)c2c1C (stereo not given),106
CCOC(=O)C1=NN(c2cccc(Cl)c2)C2(S1)c1ccccc1C(c1ccc(C)cc1)=NN2c1ccccc1 (stereo not given),108
O=C(N/C=C/[P+](c1ccccc1)(c1ccccc1)c1ccccc1)c1ccccc1,113
CCSc1nnc2c(n1)[nH]c1c(C)cccc12,109
COC(=O)c1sccc1NC(=O)N1CCN(c2nc3cc(F)ccc3n3cccc23)CC1,104
Cc1ccsc1C1CC(c2ccc(Cl)cc2)Nc2ncnn21 (stereo not given),109
COc1cccc(-c2cn3nc4c(nc3n2)CCCC4)c1,132
CCn1c(SCc2ccc(F)cc2)nnc1-c1ccc2c(c1)OCCCO2,104
c1ccc(-c2nnc(-c3cccnc3N3CCN(c4ncccn4)CC3)o2)cc1,104
CCOC(=O)c1c(C)oc2ccc(N(C(=O)c3ccccc3Cl)S(=O)(=O)c3ccc(C)cc3)cc12,123
CCc1nnc(NC(=O)c2sc3nc(-c4ccccc4)cc(C(F)(F)F)c3c2N)s1,108
CCOC(=O)c1c(CN2CCC(C)CC2)n(-c2ccccc2)c2cc(Br)c(OC(C)=O)cc12,105
O=c1[nH]c(=S)[nH]c2c1C1(CCCC1)Cc1ccccc1-2,108
COc1cccc(C(=O)N2c3ccccc3N3C(c4c(C)c(C)cc(C)c4C)=NON23)c1,110
COc1ccc(CCNC(=O)c2ccc3c(c2)ncn3-c2cccc(C)c2)cc1OC,104
CN1C(=O)C(C)(C)N(C(=O)c2cccc([N+](=O)[O-])c2)c2ccccc21,105
COc1ccccc1NC(=O)C(Cc1c[nH]c2ccccc12)NC(=O)Oc1ccccc1 (stereo not given),108
O=C(C1CCN(c2cncnc2N2CCCCC2)CC1)N1CCC(N2CCCCC2)CC1,103
CCOC(=O)N1CCN(C(=O)c2ccc3c(=O)n(-c4cc(C(F)(F)F)ccc4Cl)c(=S)[nH]c3c2)CC1,104
N#Cc1ccc(N2C(=O)C3C4c5ccccc5C(c5ccccc54)C3C2=O)cc1 (stereo not given),114
CCOc1c(Br)cc(C2C(C(=O)OC)=CN(Cc3ccc(F)cc3)C=C2C(=O)OC)cc1OC,103

# Ordered by value in GIV Gai3 FP (low to high): 5 of the compounds above
SMILES,GIV Gai3 FP
COC(=O)CNC(=O)N1CCN(Cc2nc3cc(C(=O)N(C)C)ccc3n2C)CC1,99
c1ccc(-c2nnc(-c3cccnc3N3CCN(c4ncccn4)CC3)o2)cc1,104
Cc1ccsc1C1CC(c2ccc(Cl)cc2)Nc2ncnn21 (stereo not given),109
COc1cccc(C(=O)N2c3ccccc3N3C(c4c(C)c(C)cc(C)c4C)=NON23)c1,110
O=C(N/C=C/[P+](c1ccccc1)(c1ccccc1)c1ccccc1)c1ccccc1,113

# The listing continues.
SMILES,GIV Gai3 FP
COC(=O)c1ccccc1NC(=O)c1ccc(=O)n(Cc2ccccc2F)c1,103
O=C(CCc1nc(CSc2nc3ccccc3o2)no1)Nc1cc(F)cc(F)c1,104
CC1=NN(C(=O)c2ccc(Cl)cc2)C(O)(c2ccc(Cl)cc2)C1 (stereo not given),106
Cc1c(Nc2nc3nonc3nc2Nc2ccc(F)cc2)c(=O)n(-c2ccccc2)n1C,106
COc1ccc(NC(=O)Cn2nc3c4sccc4ncn3c2=O)cc1Cl,103
COc1ccc(NC(=O)CCc2c(C)nn(-c3ccc4nncn4n3)c2C)cc1OC,105
CCOc1ccc(N2C(=O)CS(=O)(=O)C2c2ccc([N+](=O)[O-])cc2)cc1 (stereo not given),122
O=C(NCC1CCCO1)c1ccc2c(=O)n(CC3CCCO3)c(SCC(=O)N3CCN(c4ccccc4)CC3)nc2c1 (stereo not given),111
O=C(CC1CCN(C(=O)c2cc3ccccc3[nH]2)CC1)NCc1ccc2c(c1)OCO2,96
CCNc1cc(C)nc(Nc2ccc(NC(=O)CC3CCCC3)cc2)n1,110
O=c1[nH]c(-c2ccccc2)nc2c1C1(CCCCC1)Cc1ccccc1-2,109
CC1(C)CC2(CC(c3ccccc3Cl)Oc3cc(O)c(Cl)cc32)NC(=S)N1 (stereo not given),108
COc1ccc(NC(=O)C2CCN(C(=O)C3Sc4ccccc4NC3=O)CC2)c(OC)c1 (stereo not given),103
CC(C)NC(=O)N1CCC2(C1)C(=O)N(C)c1ccccc12 (stereo not given),95
COc1cc(/C=C\CO)cc(OC)c1OC1OC(CO)C(O)C(O)C1O (stereo not given),109
Cc1oc(C2CCN(C(=O)c3ccsc3)CC2)nc1C(=O)N1CCSCC1,98
COC(=O)Nc1ccc2c(c1)N(C(=O)CCN(C)C)c1ccccc1CC2,107
O=C(NCc1ccco1)/C(=C/c1cccc([N+](=O)[O-])c1)NC(=O)c1ccc(Br)cc1,112
COc1ccc(CCNC(=O)c2cccnc2SCC(=O)Nc2ccc(C(C)C)cc2)cc1OC,103
COc1ccc(-n2nnc3c(N4CCN(C(=O)CC5CCCC5)CC4)ncnc32)cc1,103
CCCS(=O)(=O)N1CCC(c2nnc(C(=O)Nc3ccc(OC)cc3)s2)CC1,102
Cc1cc(N2CCCC2)nc2ccc(NC(=O)CCC3CCCC3)cc12,108
COc1ccccc1N1CCN(c2ncc(NC(=O)c3ccccc3Cl)cc2C(=O)O)CC1,109
CC1CCC(=C(C#N)c2nc(-c3ccc(Br)cc3)cs2)CC1 (stereo not given),105
CC(=O)Nc1ccc(S(=O)(=O)N2CCc3c(c(-c4nc(-c5ccccc5)no4)nn3C)C2)cc1,105
O=C(Nc1nc2ccccc2n1CCOc1ccccc1)c1ccc(Cl)cc1,102
C=CCNC(=O)COc1cccc2c(=O)n(CC=C)ccc12,102
C=CCn1c(SCC(=O)N2CCOCC2)nc2sc3c(c2c1=O)CCCC3,108
Cc1c(CC(Cl)(Cl)Cl)c2c(n1-c1ccc(Br)cc1)CC(C)(C)CC2=O,102
O=S(=O)(c1ccc(Cl)c(-c2nnc(-c3ccccc3)o2)c1)N1CCN(c2ccccn2)CC1,105
O=C(Nc1ccc(Cl)cc1Cl)c1cc(S(=O)(=O)N2CCN(c3ccccc3)CC2)ccc1F,106
Cc1ccc(NS(=O)(=O)c2cc(-c3cc(C(F)(F)F)on3)sc2C)cc1C,101
Cc1ccc(-c2nc(C)cc(SCC(=O)Nc3cc(C)ccc3C)n2)cc1,107
CCOCCCNC(=O)c1cc(S(=O)(=O)N2CC(C)CC(C)C2)ccc1Sc1cccc(Cl)c1 (stereo not given),109
CCN(CC)C(=O)c1ccc(-c2nc3cc(NS(=O)(=O)c4ccc(F)c(F)c4)ccc3n2C)cc1,97
Cc1ccc(C(=O)N/N=C/c2cn(-c3ccccc3)nc2-c2ccccc2)cc1,101
COc1ccccc1/C=C1\N=C(c2ccc(OC)c(OC)c2)N(c2ccc(C)c(C)c2)C1=O,112
COc1ccc(CN2CCCC2c2cc(C)on2)cc1O (stereo not given),118
CCOC(=O)C1=C(C)N=c2s/c(=C/c3ccc(N(CC)CC)o3)c(=O)n2C1c1cc(OC)ccc1OC (stereo not given),113
COc1ccc(-c2nc3ccc(C(=O)O)cc3nc2-c2ccc(OC)cc2)cc1,108
Oc1oc(-c2cccc3ccccc23)nc1/C=N/c1nc2ccc(Br)cc2s1,99
O=C(C1CC(=O)N(c2ccccc2)C1)N1CCN(c2ncnc3c2nnn3-c2cccc(F)c2)CC1 (stereo not given),100
CCOc1ccc(C2C(C#N)=C(N)N(c3cccc([N+](=O)[O-])c3)C3=C2C(=O)CC(C)(C)C3)cc1 (stereo not given),108
COc1cc(Cl)ccc1OC(=O)c1cc2c(-c3ccccc3F)nn(C)c2s1,109
Clc1ccc(CNC2=NCCNC23CCCCCC3)cc1,103
O=c1c2ccccc2nc(-c2ccc(Br)cc2)n1Cc1cccc([N+](=O)[O-])c1,106
COc1ccc(N2C(=S)N=C(Nc3cccc(C)c3)C23CCCC3)cc1,101
Cc1c(Cl)cccc1S(=O)(=O)N1CCC(c2noc(-c3ccccc3)n2)CC1,101
COc1ccc(Cl)cc1NC(=O)Nc1cccc(-c2nnc(-c3ccccc3)o2)c1,107
COc1ccc(NC(=O)C2CCN(S(=O)(=O)c3cc(-c4noc(C)n4)cs3)CC2)c(OC)c1,106
Cc1nc2scc(C)n2c(=O)c1N,99
O=C(NCc1nc2cccnc2n1Cc1ccc(F)cc1)c1ccc(F)cc1,104
CCOc1ccc(NC(=O)Cn2cnc3c(sc4ncccc43)c2=O)cc1,101
Cc1ccc(NCC(O)Cn2c(-c3ccccc3)c(-c3ccccc3)c3cc(C)ccc32)cc1 (stereo not given),102
O=C(Nc1ccccc1Cl)N1CCC2(CC1)Nc1ccccc1-n1cccc12,102
CCCCN1C=C(c2ccc3ccccc3n2)C(C[N+](=O)[O-])c2ccccc21 (stereo not given),115
Cc1cccc(-n2c(SCc3cc(=O)n4cc(Br)ccc4n3)nc3[nH]ncc3c2=O)c1,106
CCOc1cc(C2C(C(=O)OC)=CN(Cc3ccc(F)cc3)C=C2C(=O)OC)cc(Br)c1O,109
CCOC(=O)CC(=O)CSc1nc2c(sc(=S)n2-c2ccc(C(=O)OCC)cc2)c2nc3ccccc3n12,103
Cc1sc(C)c(S(=O)(=O)Nc2cccc(Cl)c2)c1-c1cc(C(F)(F)F)on1,100
# More compounds follow:
SMILES,GIV Gai3 FP
S=C(Nc1ccccc1)N1CCn2c3c(c4cc(C5CCCCC5)ccc42)CCCC31 (stereo not given),106
O=C(Nc1ccc(F)cc1F)C1CCN(c2cc(C(=O)N3CCCC3)ccn2)CC1,99
COc1ccc(N2CC(c3nnc(NC(=O)Cc4cccc(F)c4)o3)CC2=O)cc1 (stereo not given),100
Cc1cc2c(cc1C)CSC(c1cc(Br)cc(Br)c1O)SC2,105
CCOC(=O)c1ccc(N2C(=O)C(=O)/C(=C(/O)c3ccc(OC)cc3)C2c2cccc(F)c2)cc1 (stereo not given),110
O=C(CN1C2=NCCN2c2ccccc21)c1ccccc1,110
CC(=O)Nc1cccc(N2CC(C(=O)Nc3nc4ccc(Cl)cc4s3)CC2=O)c1 (stereo not given),103
CC(C)(C)NS(=O)(=O)c1ccc2c(c1)N(Cc1noc(C3CCC3)n1)C(=O)CO2,98
Cc1ccc(Cn2cc(C(=O)Nc3ccc(S(N)(=O)=O)cc3)ccc2=O)cc1,102
O=C1CSC(c2ccccc2)N1Nc1nc(N2CCCCC2)nc(N2CCCCC2)n1 (stereo not given),103
CC(=O)Nc1ccc(-c2cc(C(=O)NC3CC3)c3ccccc3n2)cc1,111
CC(=O)Nc1cc(C(=O)N2CCN(S(=O)(=O)c3ccc4[nH]c(=O)sc4c3)CC2)ccc1C,98

# Part of the list above in order of SMILES length, low to high:
SMILES,GIV Gai3 FP
Cc1cc(N2CCCC2)nc2ccc(NC(=O)CCC3CCCC3)cc12,108
O=C(N/C=C/[P+](c1ccccc1)(c1ccccc1)c1ccccc1)c1ccccc1,113
COc1ccc(NC(=O)C2CCN(S(=O)(=O)c3cc(-c4noc(C)n4)cs3)CC2)c(OC)c1,106
CCN(CC)C(=O)c1ccc(-c2nc3cc(NS(=O)(=O)c4ccc(F)c(F)c4)ccc3n2C)cc1,97
CCOC(=O)C1=NN(c2cccc(Cl)c2)C2(S1)c1ccccc1C(c1ccc(C)cc1)=NN2c1ccccc1 (stereo not given),108
O=C1CN(C(=O)c2cc([N+](=O)[O-])c(N3CCOCC3)c([N+](=O)[O-])c2N2CCOCC2)c2ccccc2N1,108

# (cont.)
SMILES,GIV Gai3 FP
COc1cccc(NC(=O)c2sc3ncnc(N4CCCCC4)c3c2C)c1,118
Cn1nc(CO)c2c1CCNC2,103
O=S(=O)(c1ccccc1)N(CC(O)CN(C1CCCCC1)C1CCCCC1)c1ccccc1 (stereo not given),113
CCOC(=O)C1=C(O)/C(=C/c2ccc(OC)cc2)SC1=Nc1ccc(Cl)cc1,108
O=C(NCCc1ccccc1)C1CCC(Cn2c(SCc3cc(=O)n4ccccc4n3)nc3ccccc3c2=O)CC1 (stereo not given),104
COc1ccc(Cn2c(=S)[nH]c3cc(C(=O)N4CCN(c5ccccc5)CC4)ccc3c2=O)cc1,104
Cc1ccc(-c2ccc(-n3nc(C)c(S(=O)(=O)N4CCN(C(C)C)CC4)c3C)nn2)cc1C,110
CCn1c(=O)c(N2CCN(C(=O)c3cccc(N(C)C)c3)CC2)nc2ccccc21,104
Cc1cc(N2CCOCC2)nc(NCc2ccccc2)n1,98

# Source: PubChem BioAssay (ICCB-Longwood Screening Facility, Harvard Medical School)

# Only part of the results is shown. The share of hits here may be higher or lower than overall.
